High-throughput results as filed in PubChem.
UUG fidelity = yeast start codon fidelity modulation; activity score, % at 18.7 µM; hit rate 0.13% among 350,000; S. cerevisiae UUG-firefly luciferase reporter, luminescence/redox ratio;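 active = replicate mean at a twofold rise or more, about +100% in these data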;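 note: firefly luciferase made from a UUG start codon reports start codon fidelity; reporter light over untreated wells divided by growth signal over untreated wells; some hits fall short of that in this replicate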
eIF4H FP inh = inhibitors of RNA binding by human eIF4H. inhibition, % at 35 µM. hit rate 0.94% among 290,000. AID 2012. Q15056. eIF4H fluorescence polarization binding assay;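 active = 50% or more with normal probe brightness, or confirmed in later tests; about a fifth of its hits are not listed in these tables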;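 note: calls also rest on retests at 20 µM and on dose response follow-up; 0% = protein and probe with vehicle and 100% = probe without protein; strong numbers were not always called active; many hits fall short of the cut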
PABP polyA inh = blocks human PABP binding to poly(A) RNA | AID 2014 | fluorescence polarization | inhibition, % at 35 µM | P11940 | hit rate 1% among 290,000;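 active = 50% or more with normal probe brightness, or confirmed in later tests; about a fifth of its hits are not listed in these tables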;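 note: calls also rest on retests at 20 µM and on dose response follow-up; controls were probe without protein and protein plus probe with vehicle; some compounds called inactive have numbers as strong as hits; many hits fall short of the cut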
Target sequence (P11940 whole entry, looked up): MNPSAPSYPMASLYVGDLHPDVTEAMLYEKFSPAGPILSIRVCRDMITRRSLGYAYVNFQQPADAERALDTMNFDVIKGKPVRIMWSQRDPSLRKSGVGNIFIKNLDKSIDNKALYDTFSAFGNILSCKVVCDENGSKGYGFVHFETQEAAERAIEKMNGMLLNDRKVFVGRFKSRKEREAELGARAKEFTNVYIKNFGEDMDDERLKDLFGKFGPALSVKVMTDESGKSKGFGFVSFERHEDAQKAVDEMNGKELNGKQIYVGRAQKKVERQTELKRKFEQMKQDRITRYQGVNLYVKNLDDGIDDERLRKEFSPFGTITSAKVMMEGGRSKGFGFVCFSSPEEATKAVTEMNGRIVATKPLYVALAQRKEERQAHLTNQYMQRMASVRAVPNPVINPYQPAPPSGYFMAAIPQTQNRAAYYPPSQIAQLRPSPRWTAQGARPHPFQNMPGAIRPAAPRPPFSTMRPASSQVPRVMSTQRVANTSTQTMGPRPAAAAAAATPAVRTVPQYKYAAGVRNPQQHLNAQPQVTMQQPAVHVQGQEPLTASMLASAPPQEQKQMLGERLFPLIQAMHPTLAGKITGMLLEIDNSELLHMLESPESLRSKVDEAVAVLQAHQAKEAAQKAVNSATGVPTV
Env fusion inh = blocks HIV Env-driven cell-cell fusion; HeLa-JRFL Env/CEM21 cell fusion, luciferase; inhibition, % at 12.3 µM; hit rate 1.1% among 360,000;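 active = mean replicate inhibition score of at least 50 and every replicate individually at or above 50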;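 note: 0% = plate neutral controls and 100% = maraviroc near 300 nM; one replicate is shown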
MT1-MMP act inh = blocks activation of human MT1-MMP; HT1080 RFP-PRO-GFP cells, GFP/RFP ratio fluorescence, overnight; percent of plate control window, DMSO zero; GFP/RFP ratio change, % at 20 µM; hit rate 0.061% among 360,000; AID 651647;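 active = GFP/RFP ratio change of at least 30% with cell ATP level not reduced by more than half and red fluorescence within 50% of control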; note: strong numbers were not always called active
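Test system: HT1080 cells expressing an RFP-PRO-GFP fluorescent reporter construct / Compound dosing: single-point 20 µM compound, 1% DMSO / Schedule: cells overnight before dosing, compound overnight, 37 °C, 5% CO2 / Evaluation: GFP/RFP fluorescence ratio / Control set: DMSO and RFP-L50D-GFP cell wells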
Rce1 inhib = yeast Ras-converting enzyme inhibition; Q03530; yeast membranes, quenched prenylated peptide cleavage fluorescence; calls only; hit rate 0.27% among 290,000;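 active = fall in fluorescence gain of 50% or more versus controls, with final raw signal at or below 3038400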;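 note: plate controls were neutral control wells for no effect and wells lacking membranes for full effect; tested at 10 µM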
CSC inhib = cancer stem cell inhibition. cancer stem cell-like cells viability, luminescence. inhibition, % at 7.5 µM. hit rate 1.1% among 300,000. AID 2717;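 active = mean at 75% or more and at least half the replicates too; tested in HMLE shEcad cells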;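 note: 0% = median of negative and 100% = median of positive control wells; the first replicate is given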
MT1-MMP act inh RFP = further read-out of MT1-MMP act inh, marked with its call; RFP signal change, %; measured here: RFP expression control read;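 0 = vehicle wells; hits needed this value within 50% of zero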
Starred values were filed as active, the others as inactive; i = inactive; . = no result given.

canonical_smiles | UUG fidelity | eIF4H FP inh | PABP polyA inh | Env fusion inh | MT1-MMP act inh | MT1-MMP act inh RFP | Rce1 inhib | CSC inhib
Cc1cnc(C(=O)NCCc2ccc(Cl)cc2)cn1 | -16 | 9 | 7 | -2 | 2 | 1 | i | -3
COCCn1c(N2CCN(c3ccccc3)CC2)nc2c1c(=O)n(C)c(=O)n2C | 12 | -10 | 7 | 2 | -6 | -6 | i | 4
O=C(CSC1=NCCS1)NCc1ccco1 | -19 | -1 | 14 | . | -4 | 1 | i | -12
CC(=O)Nc1ccc(S(=O)(=O)N2CCN(C(=O)c3ccco3)CC2)cc1 | -17 | 3 | -3 | -3 | 5 | 3 | i | -3
CN(C)S(=O)(=O)c1cc(NC(=O)CN2CCNC(=O)C2)ccc1Cl | -4 | 2 | -3 | -8 | 2 | 3 | i | -9
COc1ccc(NC(=O)CCCNC(=O)Cn2cnc3sc(C)c(C)c3c2=O)c(OC)c1 | 4 | -23 | 4 | -4 | 2 | -1 | i | -8
COc1ccc(Nc2cc(C(=O)N3CCc4ccccc4C3)c3ccccc3n2)c(OC)c1 | -26 | 4 | 5 | 4 | 0 | -3 | i | 35
CCCc1ccc2oc(C(=O)NCCc3cnn(C)c3)c(C)c2c1 | -15 | -1 | 13 | -45 | 4 | 0 | i | -6
O=C(Nc1cccc([N+](=O)[O-])c1)c1cc(S(=O)(=O)Nc2ccccn2)ccc1Cl | -6 | 13 | 11 | 8 | 1 | 1 | i | -2
CCOC(=O)c1c(NC(=S)Nc2ccc(Cl)cc2)sc(C)c1C | -23 | 2 | 7 | -133 | 5 | 1 | i | .
CC(=O)N1CCN(c2c(F)c(F)c(C(F)(F)F)c(F)c2F)CC1 | . | -4 | 6 | -10 | 1 | -11 | i | .
COc1cc(-c2nc3ccccn3c2/N=C/c2ccc(F)cc2)ccc1O | -13 | 3 | 17 | -99 | 3 | 1 | i | 2
Cc1ccc(-c2cc(C(F)(F)F)nc(SCC(=O)c3cccc([N+](=O)[O-])c3)n2)cc1 | -5 | -5 | -9 | -36 | -2 | -10 | i | 59
N#CCCn1cc(C(N)=O)c(-c2ccc3ccccc3c2)n1 | -10 | 0 | 8 | 7 | -4 | -2 | i | -17
O=C(COc1ccc2c(-c3ccccc3)cc(=O)oc2c1)Nc1ccc(CN2CCOCC2)cc1 | -35 | 8 | -12 | 0 | -2 | -5 | i | -9
CCC(=O)N1CCC1(C)C(=O)Nc1cc(OC)ccc1OC (stereo not given) | -12 | . | . | -7 | -2 | 2 | . | .
CN(C)c1ccc(NC(=O)Oc2ccccc2)cc1 | -28 | -2 | -1 | . | 29 | 8 | i | 3
CCOC(=O)N1CCN(C(=O)c2ccccc2NC(=O)c2ccc(Br)cc2)CC1 | . | 4 | -22 | -11 | -2 | 2 | i | -14
COc1ccc2[nH]c3c(c2c1)CCN1C(=O)C(CC(=O)NCCc2ccccn2)C[C@H](C(=O)N2CCCCC2)[C@@]31CCc1ccccc1 (stereo not given in full) | -16 | . | . | -31 | -8 | -7 | . | .
O=S1(=O)CC(N2CCN(c3ccccn3)CC2)CN1Cc1ccc(F)cc1 (stereo not given) | -8 | . | . | -67 | 8 | 11 | . | .
CCOc1ccc(NC(=O)N2CCc3ccccc3C2)cc1 | -7 | 0 | 5 | 1 | 0 | 4 | i | -1
CCOC(=O)Cc1ccc(Nc2nc3cc(-c4ccccc4C)sc3c(=O)n2C)cc1 | -7 | . | . | 8 | -2 | -2 | . | .
Cc1cc(OC(=O)c2ccccc2C(F)(F)F)c([N+](=O)[O-])c(=O)[nH]1 | -5 | 3 | 0 | -68 | 4 | 6 | i | -10
O=C(c1cc2n(n1)C(C(F)(F)F)CC(c1ccc(Cl)cc1)N2)N1CCCC1 (stereo not given) | -23 | -6 | -10 | 12 | 3 | 3 | i | -2
O=C(Nc1ccc([N+](=O)[O-])cn1)c1cc(-c2cccc(Cl)c2)nc2ccccc12 | . | -14 | -2 | -10 | 5 | 4 | i | 14
Cc1ccc(-n2nc(C(=O)O)c(C)c(C#N)c2=O)cc1Cl | -3 | -8 | -13 | -2 | -4 | 2 | i | 6
O=C(NCCC1=CCCCC1)C1CCN(S(=O)(=O)c2cccc3nsnc23)CC1 | -4 | -5 | 4 | . | 2 | 0 | . | -13
Cc1ccc(NC(=O)/C(Cl)=C\c2ccccc2)cc1 | -40 | . | . | -273 | 10 | -7 | i | 0
COc1ccc(Nc2ncc(C(=O)N3CCN(c4ccc(F)cc4)CC3)c3ccccc23)cc1 | 3 | -2 | 6 | 93* | 25 | -7 | i | 8
CCCOP(=O)(OCCC)c1c([N+](=O)[O-])cc(C(F)(F)F)cc1[N+](=O)[O-] | . | 1 | 14 | . | -3 | 4 | i | 9
CC(C)Oc1ccc(C(=O)NCc2cccs2)cc1 | -29 | -2 | -6 | -36 | 0 | 2 | i | -7
O=C(c1ccccc1)c1sc(N2CCOCC2)nc1-c1ccccc1 | 26 | 8 | 2 | -4 | -3 | -1 | i | 14
CC(=O)Nc1ccc(S(=O)(=O)N2CCN(S(=O)(=O)N3CCC(C)CC3)CC2)cc1 | -13 | 24 | 22 | 8 | -2 | -2 | i | -1
COC(=O)c1c(O)cc(C(C)(C)C)n(-c2ccc(F)cc2)c1=O | . | -8 | -10 | 9 | -9 | -2 | i | -2
O=C(CSc1nc2ccccc2[nH]1)Nc1cc(C(F)(F)F)ccc1N1CCOCC1 | . | 0 | -14 | . | 0 | -5 | i | 20
CCCCOP(=O)(c1ccc(N(C)C)cc1)C(O)c1ccccc1F (stereo not given) | 11 | -3 | 0 | -27 | 2 | -2 | i | -25
COc1ccccc1N1CCN(C(=O)c2ccc(NS(=O)(=O)c3ccc(C)cc3)cc2)CC1 | -7 | -8 | -1 | 5 | 8 | -4 | i | -12
O=C(c1cnn(C(=O)c2ccco2)c1)c1cc(Cl)cc(Cl)c1O | -14 | . | . | . | -5 | 3 | . | 20
Cc1cc(C)nc(SCc2nnc(SCc3ccccc3Cl)o2)n1 | -10 | 6 | 4 | -38 | 0 | -10 | i | -18
Cc1cc(C(=O)OCC(=O)N2c3ccccc3NC(=O)C2(C)C)c(C)n1-c1ccccc1 | 1 | -10 | 11 | -11 | -16 | -21 | i | -5
O=C(CCNC(=O)c1ccccc1Cl)Nc1nc2ccccc2s1 | . | -1 | 7 | -10 | -3 | 0 | i | 4
O=C(NCc1nnnn1-c1ccc(F)c(F)c1)c1ccc2ccccc2c1 | . | . | . | . | 0 | -2 | i | 10
Fc1cc(F)cc(NC(=S)N2CCN(c3ncccn3)CC2)c1 | . | -2 | -11 | 1 | 1 | -2 | i | 2
CNC(=O)CN(C1CCCCC1)S(=O)(=O)c1ccc(F)cc1 | -14 | 5 | 2 | 1 | -5 | -1 | i | -4
O=C(NCc1ccccc1Cl)c1ccccc1CCc1ccccc1 | . | 13 | 9 | 15 | -9 | -6 | i | 14
O=C(CSc1n[nH]c(=O)[nH]c1=O)Nc1ccc(SC(F)F)cc1 | -24 | . | . | 42 | 4 | 2 | . | -1
COc1c(Cl)cc(Cl)cc1C(=O)n1nc(C)cc1C | -10 | -3 | 5 | . | -1 | 2 | i | -3
Cc1ccc(SCC(=O)NNC(=O)c2ccccc2)c(C)c1 | -14 | -9 | -2 | -3 | -1 | -4 | i | -12
CCOc1cc(CNn2nnnc2N)ccc1OCC(=O)NC(C)(C)C | -8 | -11 | 1 | 6 | -6 | -4 | i | -16
CCc1c(C)sc(NC(=O)c2ccco2)c1C#N | -16 | 6 | 12 | -7 | -5 | 6 | i | .
COc1cc(-c2nnc(SCC(=O)NC3CCS(=O)(=O)C3)o2)cc(OC)c1OC (stereo not given) | . | 1 | 13 | 19 | 3 | 8 | i | -8
O=Cc1ccccc1OCCOc1ccc([N+](=O)[O-])cc1 | . | -10 | 5 | 1 | -2 | -5 | . | 31
Cc1cc(C)cc(N(CC(=O)NCc2ccc(F)cc2)C(=O)CCC(=O)Nc2ccccn2)c1 | -21 | -12 | -6 | -7 | -3 | -3 | i | -1
Cc1ccc2c(COC(=O)c3ccccc3F)cc(=O)oc2c1 | -12 | 2 | 2 | -40 | -4 | -2 | i | -10
CCCn1c(CCNc2nc(-c3ccc(OC)cc3)cs2)nc2ccccc21 | -10 | -18 | -3 | . | 0 | -8 | i | -20
CC1(C)CC(NC(=O)c2ccc(-c3ccc([N+](=O)[O-])cc3)o2)CC(C)(C)N1 | -8 | -8 | 16 | -8 | 1 | 4 | i | 14
CC1=NN(C(N)=S)C(=O)C1N=Nc1c(C)cc(C)cc1C (stereo not given) | -30 | -14 | -1 | -236 | 19 | 4 | i | -7
CCc1nnc(NC(=O)CSc2nccn2-c2cccc(C)c2)s1 | -6 | -2 | -3 | -101 | 13 | -5 | i | -9
Cc1nc(C(F)(F)F)ccc1C(=O)Nc1ccccc1F | -13 | -7 | -9 | 0 | 6 | 0 | i | 1
CC(=O)C1=C(O)C(=O)OC1c1ccc(C)cc1 (stereo not given) | 1 | 9 | -13 | 9 | 2 | -2 | i | 0

Later entries:
canonical_smiles | UUG fidelity | eIF4H FP inh | PABP polyA inh | Env fusion inh | MT1-MMP act inh | MT1-MMP act inh RFP | Rce1 inhib | CSC inhib
Cc1cccc(C)c1NC(=O)CNC(=O)c1ccc(NS(=O)(=O)c2ccc3[nH]c(=O)[nH]c3c2)cc1 | -15 | . | . | -21 | -4 | 3 | i | -2
CC1(C(=O)NS(=O)(=O)c2cccc(Cl)c2)CCN1C(=O)CCc1cccs1 (stereo not given) | -9 | . | . | -3 | 2 | 8 | . | .
CCOC(=O)C1=C(C)N(C2CCCCC2)C(=O)C1 | -16 | -3 | -6 | . | 3 | 5 | i | -15
Cc1ccc(C(=O)N2CC(C(=O)O)C2)cc1 | . | -2 | 9 | 17 | 0 | 7 | i | -7
COC(=O)c1sccc1NC(=O)COc1ccc(C)cc1 | . | -14 | -6 | -6 | -1 | 6 | i | -7
COc1ccccc1CNC(=O)CCc1ccccc1 | -17 | -8 | -3 | -8 | -1 | 2 | i | 2
O=CN1CC(=O)N(c2ccccc2)c2c([nH]c3ccccc23)C1 | -8 | 6 | 4 | -18 | 3 | 5 | i | 5
CCC(=O)Nc1ccc(-c2nnc(SCc3ccc(C(=O)Nc4nccs4)cc3)n2CC)cc1 | -19 | -3 | -5 | . | 1 | 0 | i | -8
O=C(Nc1ccc(-c2nc3ccccc3o2)cc1)c1ccc2c(c1)OCO2 | -21 | -15 | -3 | . | 11 | 1 | i | 0
CN(C)/C=C/C(=O)c1ccc2noc(-c3ccccc3)c2c1 | -7 | -2 | 6 | 54 | -19 | -10 | i | 2
COc1ccc(-c2nc3ccccc3s2)cc1O | -77 | -8 | 4 | -57 | 6 | -1 | i | 25
CN(C)CCNCc1ccc(OC2CCCC2)cc1 | -18 | -7 | 17 | 17 | 7 | 1 | i | -3
COc1ccc(Cl)cc1S(=O)(=O)NCc1nc2nc(C)cc(C)n2n1 | -18 | -18 | -4 | 8 | -1 | 1 | i | -10
COc1ccc(CC(=O)NCc2ccc3c(c2)cc(C)n3C)cc1 | 1 | 22 | -11 | 5 | . | . | i | 1
